Assay outcomes: PubChem, National Center for Advancing Translational Sciences (NCATS)
HPGD inh: blocks human HPGD enzyme activity. P15428. purified HPGD, NADH fluorescence kinetic, PGE2 substrate. Potency, µM, for inactives: at the highest dose activity change, negative = inhibition, most hits filed as inhibitors. 150,000 compounds, 4.3% hits. AID 894; active = well fitted inhibition curve with a large enough effect (not every such curve was filed as active); inconclusive = small, poorly fitted or top-dose-only effect, or another doubt; inactive = no such curve, though single readings can be large or run the other way;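 note: top concentration of the series not given in the record; plate controls included wells without enzyme; inactives centre near -10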
Target sequence (P15428 whole entry, looked up): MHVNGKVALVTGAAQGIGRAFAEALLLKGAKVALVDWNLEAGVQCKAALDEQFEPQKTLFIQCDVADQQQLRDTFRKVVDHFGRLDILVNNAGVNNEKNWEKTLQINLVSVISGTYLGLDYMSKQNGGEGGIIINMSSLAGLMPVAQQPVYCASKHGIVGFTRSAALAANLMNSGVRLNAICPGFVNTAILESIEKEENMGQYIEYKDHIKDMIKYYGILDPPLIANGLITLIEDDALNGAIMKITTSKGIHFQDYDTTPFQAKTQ
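20 nM HPGD preincubated 15 min at room temperature with compound in 50 mM Tris-HCl pH 8, 0.01% Tween 20. Started with 1 mM NAD+ and 30 uM prostaglandin E2; NADH fluorescence (360/450 nm) read 5 times over 30-s intervals, last minus first.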
* hit, by the source's call; ? = inconclusive; & = joins results of further samples. % is set by controls: 0 for no effect and ±100 for the full control effect; potency is the fitted concentration of half-maximal effect. An excerpt; count on the stated rates, not on these rows.

SMILES	HPGD inh
COC(=O)C1=C(C(=O)OC)[C@@H]2N(C)c3ccccc3[C@@]23C[C@@H](C(=O)OC)N(S(=O)(=O)c2ccc([N+](=O)[O-])cc2)C3=N1	-6%
C(=N\c1nccs1)/Nc1nccs1	-23%
Cc1ccc(-c2nc(C3CCCN(S(=O)(=O)c4ccc(C(C)(C)C)cc4)C3)no2)cc1 (configuration not stated)	-4%
Cc1cc(C(=O)N[C@H](c2ccccc2)[C@@]2(C)C[C@@H]2[C@@H](C)C(=O)Nc2ccc3ccccc3c2)no1	-11%&-15%
COC(=O)/C=c1\sc2ncnn2c1=O	?
CCN(C(=O)c1ccc(C(C)(C)C)cc1)c1nnc(Cn2nnc3ccccc32)s1	-20%
O=c1nc2ccccc2c2n1CC(CN1CCN(c3ccccc3F)CC1)N2 (configuration not stated)	-1%
COc1ccc(C(CC(=O)Nc2ccc(Cl)cc2F)NC(=O)C(F)(F)F)cc1 (configuration not stated)	-14%
O=C(Nc1ccc2oc(-c3ccc(Cl)c(Cl)c3)nc2c1)c1ncn[nH]1	?
O=c1cnc2cnc(Oc3ccccc3)nc2n1CCc1ccccc1	-7%
COc1ccc(N2C(S)=C(C#N)C(=O)NC2c2ccco2)cc1 (configuration not stated)	-6%
O=C(O)CCCCc1nc2ccccc2s1	-7%
Cc1ccc(C(=O)C(C)Oc2cccc(NC(=O)c3ccco3)c2)cc1 (configuration not stated)	-15%
c1cc(CNCCCN2CCOCC2)ccn1	0%
CC1(C)CCC(C)(C)NC(=S)N1	4%
CCOc1ccc(-n2c(N)c(C(=O)NCc3cccnc3)sc2=S)cc1	35µM*
COc1ccc(C(=O)Nc2cccc(OC)c2)cc1	-24%
Cc1cc(=O)n2c(-c3ccccc3C)n[nH]c2n1	0%
Cc1ccc(S(=O)(=O)N2CC(=NO)C2)cc1	-11%
C/C(=N/NC(=O)c1ccc(C)s1)c1cccc(NC(=O)COc2ccc(Cl)cc2C)c1	-17%
Cc1csc2nc(CNC(=O)C3CC=CCC3C(=O)O)cn12 (configuration not stated)	-6%
CNC(=O)c1cc2ccc(OC)cc2oc1=O	?
Cc1ccc(NC(=O)COc2ncnc3c(Cl)cc(Cl)cc23)cc1[N+](=O)[O-]	-4%
Cn1c(CSCc2ccc(F)cc2)nnc1SCC(=O)Nc1nccs1	-23%
COc1ccc(CNC(=O)C/C(C)=N/NC(=O)Cc2ccc(OC)cc2)cc1	3%
CC(=O)Nc1ccc(OC(=O)c2ccco2)cc1	-10%
CCc1cc(=O)oc2cc(C)c3c(C)coc3c12	-27%
O=[N+]([O-])c1cc(Cl)ccc1NCCNS(=O)(=O)c1ccccc1	-8%
COC(=O)c1ccc(OC)c(CSc2nnc(COc3cccc(C)c3)o2)c1	-11%
COC(=O)c1ccc(-n2nnnc2SCC(=O)NCc2cccc(C(=O)O)c2)cc1	-20%
BrC(Br)C(Br)Br	-2%
Cn1c(CNC(=O)Nc2ccccc2)nnc1SCc1ccccc1	-8%
CC(=O)Nc1ccc(/C(C)=N/NC(=O)c2ccc(F)cc2)cc1	-8%
Fc1cc2nc(-c3ccncc3)[nH]c2cc1F	?
O=C(Nc1cccc(Cl)c1)Nc1nnc(-c2ccncc2)s1	?
Cc1[nH][nH]c(=O)c1C(c1c(C)[nH][nH]c1=O)c1cn(Cc2ccc(F)cc2)c2ccccc12	-6%
Cc1ccc(C(=O)Oc2coc(CSc3nnc(NC(=O)C4CC4)s3)cc2=O)cc1C	-12%
Cc1ccccc1NC(=O)c1sc2nc3c(c(-c4ccco4)c2c1N)CCCC3	-11%
COc1ccc(NC(=O)Cn2nnc(-c3ccccc3NS(=O)(=O)c3ccc(OC)cc3)n2)cc1	-15%
O=C(NC1CCCCC1)c1ccc(Cn2cc(Cl)cn2)cc1	-13%
O=C1CCCC2=C1C(c1ccc3c(c1)OCO3)c1c([nH]n(-c3ccccc3)c1=O)N2 (configuration not stated)	-8%
COc1ccc(C(=O)Cc2cnn(-c3ccccc3)c2)c(O)c1	-15%
Cc1nc(N2CCOCC2)c2nc(-c3ccccc3)n(CCCN(C)C)c2n1	?
COc1cc(/C=N/NC(=O)c2ccc(COc3cc(C)ccc3C(C)C)cc2)cc(OC)c1O	-26%
O=C(NCCc1ccccc1)c1ccc(=O)oc1	-13%
CC1CC(=O)c2cnc(Nc3cccc(C(F)(F)F)c3)nc2C1 (configuration not stated)	?
COc1ccc(C(=O)NNC2=CC(=O)CC(C)(C)C2)cc1	0%
CCCN1CN(Cc2ccco2)c2nc3ccccc3n2C1	-11%
CCOC(=O)c1ccccc1N1C(=O)CSC1=S	-7%
Cc1cc(NC(=O)CSCC(=O)N(c2ccc(F)cc2)C(C(=O)NC2CCCCC2)c2ccc(O)c(O)c2)no1 (configuration not stated)	-4%
COc1ccccc1NC(=O)CCN1CCCCCC1	-3%
CC(C)c1nnc(SCC(=O)N2CCOCC2)n1C	5%
Cc1ccc(S(=O)(=O)N2CCCC2C(=O)OCC(=O)Nc2ccc3c(c2)OCO3)cc1 (configuration not stated)	-17%
Cc1csc(NC(=O)CSc2nnc(-c3ccccc3)o2)n1	-6%
O=[N+]([O-])c1ccccc1OCCCN1CCOCC1	5%
C/C(=N\NC(=O)C(C)Oc1ccc([N+](=O)[O-])cc1)c1ccccn1 (configuration not stated)	-3%

Entries listed above that bear a hit mark in HPGD inh.
SMILES	HPGD inh
CCOc1ccc(-n2c(N)c(C(=O)NCc3cccnc3)sc2=S)cc1	35µM*

(list continues)
SMILES	HPGD inh
Cc1nc2ncnn2c(C)c1CCC(=O)N1CCN(Cc2ccccc2)CC1	-13%
Br/C(=N\Nc1nn[nH]n1)c1ccncc1	-4%
O=C(NCCCn1ccnc1)c1noc2c1CCc1ccccc1-2	-15%
Cc1ccccc1NC(=S)NC(C)C(c1cccs1)N1CCOCC1 (configuration not stated)	-12%
COCCn1c(Sc2ccc(C)cc2)nc2c1c(=O)[nH]c(=O)n2C	-23%
COc1cc(C(=O)OCC(=O)N(C)Cc2ccccc2)cc(OC)c1OC	-12%
O=C1OCCN1C(=O)[C@H]1[C@H](c2ccc(Cl)cc2)C(c2cccc(Cl)c2)=NN1c1ccccc1	?
CSc1nc2c(c(-c3ccc(O)cc3)c1C#N)CCC2	-20%
Cc1cc(C)nc(SCC(=O)OCN2C(=O)c3ccccc3C2=O)n1	-14%
O=C(Cc1cc(=O)[nH]c(=O)[nH]1)NCC1CCCO1 (configuration not stated)	-3%
O=S(=O)(c1ccc2nc(SCc3cccc(Cl)c3)[nH]c2c1)N1CCOCC1	?
CCOC(=O)c1c(NC(=O)COC(=O)c2c(C)noc2C)sc2c1CCC2	?
N#Cc1ccccc1Cn1cc(/C=C/[N+](=O)[O-])c2ccccc21	40µM*
COc1ccc(C(=O)/C(=C\c2ccco2)N2C=CC=CC2=C(C#N)C#N)cc1	?
CCn1c(SCC(=O)N/N=C/c2cc(OC)c(O)c(OC)c2)nc2ccccc21	-26%
O=C(COc1ccccc1CNCc1ccccc1)Nc1ccccc1	-1%
COc1ccc(C(=O)N2CCCC2)cc1S(=O)(=O)N1CCOCC1	-3%
Cc1[nH]n(-c2ccccc2)c(=O)c1/C=N/NC(=O)c1cccc([N+](=O)[O-])c1	-15%
COc1ccc2c(c1)O[C@@H](c1cccc(C(F)(F)F)c1)[C@H](OC(=O)NCCOc1ccccc1)C2=O	-7%
O=C(Nc1ccccc1N1CCCCC1)c1cccc(F)c1	-5%
O=C(COC(=O)CC(c1ccccc1)c1ccccc1)Nc1cccc(F)c1	-7%
CCOc1cc(N2CCOCC2)c(OCC)cc1NC(=O)c1nc2nc(C)cc(C)n2n1	-5%
Cc1ccccc1N(C)S(=O)(=O)c1ccc2[nH]cc(C(=O)NCC3CCCO3)c(=O)c2c1 (configuration not stated)	?
CCOC(=O)c1nnn(CC(=O)Nc2cc(F)ccc2F)c1C(=O)OCC	-15%
OCc1cn(-c2ccccc2)nc1-c1cccnc1	-13%
Cc1ccc(NC(=O)C(C)Sc2nnc(-c3cccnc3)o2)cc1 (configuration not stated)	-27%
CC(C)C1COc2cc3oc(=O)ccc3cc2O1 (configuration not stated)	?
COc1ccc2c(c1)-c1c(ssc1=S)C(C)(C)N2S(=O)(=O)c1ccc(C)cc1	-3%
Fc1ccc(COc2ccccc2CNCc2ccncc2)cc1	-3%
CN1CCN(c2nc(Nc3cccc(C(F)(F)F)c3)nc(N3CCOCC3)n2)CC1	-4%
CCCCOc1ccc(NC(=O)CSc2cccc3cccnc23)cc1	?
CCOC(=O)C(C(=O)NCc1ccc(C)cc1)c1ncc(C(F)(F)F)cc1Cl (configuration not stated)	-2%

Shown with the structure last: part of the list above
HPGD inh	molecule
?	CC(C)C1COc2cc3oc(=O)ccc3cc2O1 (configuration not stated)
-3%	COc1ccc2c(c1)-c1c(ssc1=S)C(C)(C)N2S(=O)(=O)c1ccc(C)cc1
-3%	Fc1ccc(COc2ccccc2CNCc2ccncc2)cc1
-4%	CN1CCN(c2nc(Nc3cccc(C(F)(F)F)c3)nc(N3CCOCC3)n2)CC1

Remaining list, next part.
SMILES	HPGD inh
COc1cc2c(C#N)c(N3CCN(c4ccccc4OC)CC3)nc(N)c2c(N)n1	?
CCOC(=O)CSc1nnc(CNC(=O)c2cccs2)n1Cc1ccccc1	-19%
Cc1nn(Cc2ccccc2Cl)c(C)c1NC(=O)NC12CC3CC(CC(C3)C1)C2	-4%
CCOC(=O)c1sc(NC(=O)c2ccc(S(=O)(=O)N(C)C)cc2)nc1C	-8%
CCC1CCC2(CC1)NC(=O)N(CC(=O)c1c(C)[nH]c3ccccc13)C2=O (configuration not stated)	-13%
COc1ccc2c(c1)c1nc3ccccc3nc1n2Cc1ccc(OC(C)C)c(OC)c1	-18%
CCOC(=O)c1sc2ncnc(N3CCN(C(=O)OCC)CC3)c2c1C	-7%
O=C(Nc1ccccc1)c1cccnc1NCCc1ccccc1	-25%
COc1ccc(-c2cc(N3C(=O)Nc4ccccc4N3O)n[nH]2)cc1OC	-13%
Cc1ccc(NC(=O)CSc2nnc(-c3cccnc3)n2CCN2CCCCC2)cc1	-14%
CC(C)OCCCNC(=O)CCN1C(=O)COc2ccccc21	4%
CCOC(=O)NNC1CC(=O)N(c2ccc(OC)cc2)C1=O (configuration not stated)	1%
O=C(COC(=O)Cc1ccccc1[N+](=O)[O-])NCc1ccc(Cl)cc1	-1%
COc1ccc(CNC(=O)C(=O)NCC2OCCN2S(=O)(=O)c2ccc3c(c2)OCCO3)cc1 (configuration not stated)	-6%
CC(C)(Sc1ccc(CCN(CCCCC2CCCCC2)C(=O)NC2CCCCC2)cc1)C(=O)O	-14%&-7%
O=S(=O)(c1ccccc1)c1cccc(S(=O)(=O)N2CCCCC2)c1	-11%
CCn1c(SCC(=O)c2ccc(OC)cc2)nnc1C(C)NC(=O)c1ccc(OC)cc1 (configuration not stated)	-16%
COc1ccc(C2C(C(=O)Nc3ccccn3)=C(C)Nc3ncnn32)c(OC)c1 (configuration not stated)	-5%
CCn1nnnc1Oc1ccc(Cl)cc1	-9%
CC(C)C(=O)N1CCN(c2c(Cl)cccc2[N+](=O)[O-])CC1	-21%
CCCC(=O)Nc1cc(OC)c(NC(=O)NC2CCCCC2)cc1OC	-14%
COc1ccc2nc(NC(=O)CSc3nc(SC)ns3)sc2c1	-18%
COc1ccc(C(=O)NCC(=O)N2CCC(C)CC2)cc1OC	-26%
CC(=O)N1c2ccccc2NC(=O)C1(C)C	-5%
Cc1ccc2nc(-c3cccnc3)oc2c1	?
Cc1ccc(C(=O)O)cc1N1C(=O)c2cccc3cc(Br)cc(c23)C1=O	-9%
COc1ccc(CCNc2cc(-c3ccccc3)nc3ncnn23)cc1	?
Cc1csc(-c2coc3cc(O)cc(C)c3c2=O)n1	?
Cc1ccc(NC(=O)N(CCCN2CCOCC2)Cc2cccnc2)cc1C	-2%
CC1CCC2(CC1)NC(=O)N(CC(=O)NC(=O)NC1CCCC1)C2=O (configuration not stated)	-9%
COC(C(=O)Nc1ccc(S(=O)(=O)Nc2c(C)cccc2C)cc1)c1ccccc1 (configuration not stated)	-2%
Cc1cc(C(=O)Nc2ccccc2N2CCOCC2)c2ccccc2n1	1%

Three compounds already listed, arranged by molecular weight, rising:
SMILES	HPGD inh
CC1CCC2(CC1)NC(=O)N(CC(=O)NC(=O)NC1CCCC1)C2=O (configuration not stated)	-9%
Cc1ccc(NC(=O)N(CCCN2CCOCC2)Cc2cccnc2)cc1C	-2%
COC(C(=O)Nc1ccc(S(=O)(=O)Nc2c(C)cccc2C)cc1)c1ccccc1 (configuration not stated)	-2%

The list goes on.
SMILES	HPGD inh
Cc1ccc(C(=O)/C=C\Nc2ccc(C)c(C)c2)cc1	-9%
COc1ccc(-c2nn3c(COc4ccccc4)nnc3s2)cc1OC	?
O=C(NCCCCNC(=O)c1c(F)c(F)c(F)c(F)c1F)c1c(F)c(F)c(F)c(F)c1F	-9%
O=C(CSc1cccc(C(F)(F)F)c1)Nc1cc(S(=O)(=O)N2CCCC2)ccc1Cl	-17%
COc1ccc2c(c1)-c1nc(/N=C/c3ccc(O)c(OC)c3)sc1CC2	-26%
CCOC(=O)c1ccc(OS(=O)(=O)c2ccccc2)c(OC)c1	-10%
Cc1csc(SCC(=O)c2c(N)n(CC(C)C)c(=O)n(C)c2=O)n1	-18%
